GIV-Gai inh: inhibitors of GIV GBA-motif binding to rat Galpha-i3 | P08753 | Galpha-i3/FITC-GIV peptide fluorescence polarization, 90 min; active compounds read low; scaled: aluminum fluoride 0%, vehicle 100% | percent of control (FP), % (concentration not given with the values) | hit rate 0.42% among 210,000;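 active means replicate mean at 85% of control or lower, very high polarization wells dropped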;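 further: wells of about 15 µL received 100 nL stock; the first replicate is given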
Target sequence (P08753 whole entry, looked up): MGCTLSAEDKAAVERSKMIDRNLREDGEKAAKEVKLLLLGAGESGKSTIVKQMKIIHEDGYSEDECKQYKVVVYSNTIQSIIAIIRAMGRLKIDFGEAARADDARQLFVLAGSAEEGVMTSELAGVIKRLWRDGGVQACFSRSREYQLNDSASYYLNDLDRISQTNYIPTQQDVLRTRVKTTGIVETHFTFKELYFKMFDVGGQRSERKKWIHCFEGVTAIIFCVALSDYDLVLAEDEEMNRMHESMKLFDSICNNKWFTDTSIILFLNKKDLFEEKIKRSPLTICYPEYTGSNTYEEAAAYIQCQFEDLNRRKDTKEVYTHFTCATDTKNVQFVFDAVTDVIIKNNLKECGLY
Sa growth 42C: S. aureus growth inhibition; S. aureus RN4220 growth, OD600, 20 h, 42 °C; active compounds read low; relative growth, % (no concentration beside the values); hit rate 0.53% among 170,000;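 active means growth at 42 °C up to 50% and 20 or more points under that at 30 °C, or under 10% at both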;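 further: 300 nL library stock went into each well; scaled to the means of positive and negative controls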
HCMV UL50-53 inh: inhibitors of HCMV UL50-UL53 nuclear egress complex interaction; HTRF UL50-UL53 interaction, normalized percent inhibition; inhibition, % (test concentration not listed); hit rate 0.15% among 190,000; AID 1918969;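 active means both replicates at 50% or more, plus weaker picks with an unusually low signal ratio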;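 further: stock transfer was 100 nL into about 20 µL; 0% = negative control wells and 100% = wells with untagged competitor protein; inactives centre near -12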
Sa growth 42C second temp: also measured in Sa growth 42C; calls as there; relative growth, %; measured here: growth at 30 °C;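 optical density after 20 h as mean of two plates; 100% = untreated growth and lower means inhibition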
* = called active by the depositor; x = no result given; & = joins results of further samples. This is a random part of the collection (roughly 0.82% active in at least one column).

item	SMILES	GIV-Gai inh	Sa growth 42C	Sa growth 42C second temp	HCMV UL50-53 inh
1	O=C(C#Cc1ccccc1)Nc1ccc(OC(F)(F)F)cc1	102	97	92	8
2	COc1ccccc1C(=O)NC(C)(C)CO	100	x	x	-17
3	COC(=O)COc1coc(CN2CCN(c3cccc(Cl)c3)CC2)cc1=O	101	103	88	-17
4	CN(Cc1ccccc1)Cn1[nH]c(-c2cccs2)nc1=S	x	51	78	-46
5	CCc1cccc(NC(=S)N(Cc2c[nH]c3ccccc23)C2CCCC2)c1	100	131	76	x
6	COc1ccc(/C=C2\SC(=O)N(c3c(C)n(C)n(-c4ccccc4)c3=O)C2=O)cc1OC	x	88	87	-33
7	COCCCNC(=O)CSc1nnc(-c2ccoc2C)o1	104	x	x	-6
8	CC(C)NC(=O)C1CCCN(c2nc3cccnc3s2)C1 (centres undefined)	101	93	92	-16
9	CCC(Sc1nc2ncccc2c(=O)n1Cc1ccccc1)C(=O)Nc1ccc(OC)cc1 (centres undefined)	104	106	78	2
10	CCCCC(CC)CNC(=O)c1ccc2c(=O)n(CCOC)c(=O)[nH]c2c1 (centres undefined)	109	88	83	6
11	O=S(=O)(c1ccccc1)c1nc(-c2ccccc2Cl)oc1NCCCn1ccnc1	104	x	x	-15
12	N=C(N)SCc1ccc(Cl)cc1Cl	x	90	76	-15
13	COC(=O)c1ccccc1NC(=O)c1nc(SCc2ccccc2C)ncc1Cl	101	97	90	-6
14	O=C(N/C=C/n1cnc2cc(C(F)(F)F)ccc21)c1ccccc1	x	120	85	-16
15	COc1cc(/C=N/NC(=O)Cn2ncn(-c3ccccc3)c2=O)ccc1OC(=O)CC1SC(=O)NC1=O (centres undefined)	x	92	97	-26
16	O=C(O)CC1SC(c2cccc(Cl)c2)=NC1=O (centres undefined)	107	103	82	-9
17	COc1ccccc1NC(=O)Cn1cccc1	99	104	88	x
18	CCOc1cc(S(=O)(=O)NCc2ccc(OC)cc2)c(OCC)cc1-n1cnnn1	103	64	77	-2
19	Cc1ccc(-c2nc(C)c(CCNC(=O)c3cccs3)s2)cc1	101	89	85	x
20	COC(Cn1c(SCc2ccccc2)nnc1-c1ccccc1)OC	95	107	103	0
21	CCOc1ccc(CN2C(=O)c3ccccc3Sc3ccc(C(=O)NC(=O)C4CCNCC4)cc32)cc1	99	110	101	4
22	COC(=O)c1cn(C)c2ccc(S(=O)(=O)N3CCOCC3)cc2c1=O	100	93	87	-2
23	Cc1c(C(=O)NCc2cccnc2)oc2ccc(S(=O)(=O)N3CCCCC3)cc12	100	109	87	8
24	COc1cc(C2C3=C(CC(C)(C)CC3=O)Nc3ccccc3N2C(=O)C(F)(F)F)cc(OC)c1OC (centres undefined)	105	x	x	-20
25	CCCCN(C(=S)Nc1cccc(C)c1)C1CCN(C(C)=O)CC1	100	116	90	x
26	O=C(NCc1ccccc1F)C(=O)NCC(c1ccco1)S(=O)(=O)c1ccccc1 (centres undefined)	102	109	95	x
27	C=CCNc1nnc(SCC(=O)N2N=CCC2c2ccccc2)s1 (centres undefined)	104	94	78	-6
28	O=C(CSc1nc2ccsc2c(=O)n1Cc1ccccc1F)NCc1ccccc1Cl	103	102	85	x
29	N=C1SC2CS(=O)(=O)CC2N1/N=C/c1ccccc1 (centres undefined)	x	84	92	-18
30	Cc1nn(C)c2c1c(-c1ccccc1)cc(=O)n2C(C)C(=O)NCc1ccc(F)cc1 (centres undefined)	102	85	75	x
31	COc1ccccc1Nc1c2c(nc3ccc(NC(=O)Cc4cccs4)cc13)CCCC2	105	114	78	x
32	O=C(CSc1cccc[n+]1[O-])NCc1ccc(Cl)cc1	x	101	92	2
33	COc1ccc2nc(SC(=O)c3ccccc3)nc(C)c2c1	101	82	82	x
34	CCC(C)NC(=O)c1cc(-c2ccccc2)n[nH]1 (centres undefined)	105	102	83	-7
35	Cc1nn(-c2ccccc2)nc1C(=O)c1c(C(C)(C)C)[nH]n(-c2ccccc2)c1=O	100	79	87	-6
36	CC1=C/C(=N/NC(=O)Cn2cnc3ccccc32)CC(C)(C)C1	x	81	92	-17
37	Cc1cc(C)n(Cc2ccccc2)n1	x	103	90	-6
38	COc1ccc(C2NC(=O)N(C)C3=C2C(=O)N(c2ccc(F)cc2)C3)cc1 (centres undefined)	97	99	85	x
39	O=C(Cc1c[nH]c2ccccc12)NC1(C(=O)NC2CCCCC2)CCCCC1	99&97	87	85	-18
40	COc1cc(-c2nnc(SCC(=O)Nc3cccc(C#N)c3)o2)cc(OC)c1OC	104	95	87	17
41	CCOCCOC(=O)C1=C(C)NC2=C(C(=O)CC(c3ccccc3)C2)C1c1cc(OC)ccc1OC (centres undefined)	100	x	x	-12
42	CC1Oc2cc(S(=O)(=O)N3CCN(C(=O)Nc4ccc(F)cc4)CC3)c(Cl)cc2NC1=O (centres undefined)	104	x	x	-8
43	CC1(C)CC(=O)C(N=Nc2ccc3c(c2)OCCO3)=C(O)C1	x	109	87	-182
44	Cc1ccc(C)c(NS(=O)(=O)c2cn(C)cn2)c1	105	x	x	-9
45	C=CCn1c(C)cc(C(=O)CSc2nnc(-c3cccs3)o2)c1C	x	104	90	-6
46	CCCN(C(=O)c1cc2cc3ccc(C)cc3nc2o1)c1cccc(C)c1	103	85	97	x
47	COc1cc2c(CCNC(C)=O)c[nH]c2cc1O	101	x	x	-27
48	Nc1ccc(-c2nc3cc(N)ccc3o2)cc1	106	87	66	-18
49	O=C(Nc1ccccc1C(=O)OCc1cc(=O)n2c3c(sc2n1)CCCC3)c1ccccc1	99	110	88	x
50	COc1cccc(NC(=O)Cn2c(=O)oc3cc(S(=O)(=O)N4CCC(C)CC4)ccc32)c1	103	x	x	-37
51	COc1ccc2c(c1OC)C(=O)OC2Nc1ncn[nH]1 (centres undefined)	101	86	90	-21
52	N#Cc1ccccc1CSc1nnc2c(n1)[nH]c1ccccc12	99	94	83	-28
53	CCOC(=O)N1CCN(C(=O)c2sc3nc(C)nc(N4CCN(c5ccccn5)CC4)c3c2C)CC1	106	x	x	-8
54	O=C1CCCC(O)=C1N=Nc1ccc(C(=O)O)cc1	x	110	86	-105
55	Cc1c(SCC(C)C)cc(N2C(=O)c3ccccc3C2=O)cc1S(=O)(=O)c1ccccc1	x	82	93	-17
56	C=CCn1c(SCC(=O)N2CCOCC2)nc2sc(C)c(C)c2c1=O	99	x	x	-20
57	COc1ccccc1Nc1nc2nonc2nc1N1CCC(Cc2ccccc2)CC1	97	x	x	-9
58	O=C(c1ccco1)N1CCN(C(=O)C(NS(=O)(=O)c2cccc3nsnc23)c2ccccc2)CC1 (centres undefined)	102	108	81	-97
59	O=C(NCCN1CCOCC1)c1cccs1	x	89	98	-7
60	CNC(=S)NCCc1c(C)[nH]c2ccccc12	98	84	61	x

The listing continues.
item	SMILES	GIV-Gai inh	Sa growth 42C	Sa growth 42C second temp	HCMV UL50-53 inh
61	O=C(CSc1nnc2ccccn12)Nc1ccccc1C(=O)O	x	66	87	-19
62	COc1cccc(N2CCN(S(=O)(=O)c3ccc4[nH]c5c(c4c3)CCCC5)CC2)c1	104	105	85	x
63	Cc1noc2nc(C)n(CC(=O)N3CCCCC3)c(=O)c12	103	x	x	-24
64	Cc1n[nH]c(C)c1N1C(=O)c2cccc3c(N)ccc(c23)C1=O	-42*	107	86	x
65	CCCC(=O)c1ccc2[s+]c3ccccc3[n+](CCCN(C)C)c2c1	x	81	59	-77
66	CCOc1ccc(CN2CCc3nc(Nc4cccc(OC)c4)ncc3C2)cc1OC	107	x	x	8
67	CCc1ccccc1NC(=O)Cn1c(=O)oc2cc(S(=O)(=O)N3CCCCC3C)ccc21 (centres undefined)	104	112	91	x
68	O=C(CS(=O)(=O)c1ccccc1)N1CCN(Cc2ccc3c(c2)OCO3)CC1	99	96	93	-3
69	NC(=O)c1ccccc1NC(=O)c1cc(=O)c2ccccc2o1	x	124	90	-30
70	COc1ccccc1OCCn1c(NC(=O)c2cccs2)nc2ccccc21	107	99	90	-20
71	Cc1ccc(C)c(NC(=O)Cc2c(C)nc3c(-c4ccccc4)c(C)nn3c2C)c1	100	100	85	x
72	CC(=O)NCCc1cc2cc(C)c(C)cc2[nH]c1=O	110	91	92	-7
73	O=C(CSc1nnc2ccccn12)Nc1ccc(F)cc1	x	115	80	-8
74	O=C1C(=Nc2ccccc2)c2ccccc2N1Cc1ccccc1	101	93	79	-37
75	CN(C)S(=O)(=O)c1ccc2c(c1)nnn2CCCC(=O)N1CCN(c2ccccc2)CC1	110	x	x	-10
76	Cc1cc(C)c(N=C=S)c(Cl)c1	x	91	96	-7
77	CC(C)(C)C1CCc2c(sc3nc(CCC(=O)Nc4ccc(F)cc4)[nH]c(=O)c23)C1 (centres undefined)	95	x	x	-9
78	COc1cc(C2C(C(=O)c3cc4cccc(OC)c4o3)=C(O)C(=O)N2c2nnc(C)s2)cc(Br)c1O (centres undefined)	27*	112	78	-74
79	O=C1CSC(c2ccc(Cl)cc2)N1CCN1CCCCC1 (centres undefined)	100	97	77	-33
80	Cc1ccc(Oc2ccc(C#N)cc2)c(C)c1	105	x	x	-16
81	Cc1noc(C)c1S(=O)(=O)N1CCc2cc3cccc(C)c3nc21	98	x	x	-8
82	Cc1cc(C)c(NC(=O)CN(C)CC(N)=S)c(C)c1	x	86	87	-31
83	COc1ccc2c(Sc3ccccc3)c(C(=O)NCCCN3CCCCC3)[nH]c2c1	101	109	89	-21
84	CN1C(=O)CSc2ccccc21	100	103	98	2
85	CN1CCN(c2nc3c(c(=O)[nH]c(=O)n3C)n2CC(O)COc2ccc(Br)cc2)CC1 (centres undefined)	104	x	x	-19
86	COc1ccc(-c2nnc3c4cnn(-c5cccc(C)c5)c4ncn23)cc1	107	x	x	13
87	O=C(C1CC1)N1CCN(C23CC4CC(CC(C4)C2)C3)CC1	105	105	102	6
88	CCc1ccccc1Nc1ncnc2c1cnn2-c1ccc(Cl)cc1	100	107	92	x
89	Cc1ccc(CNC(=O)c2[nH]c(C)c(S(=O)(=O)N3CCCC3)c2C)cc1	107	x	x	-25
90	CCn1c(=O)c2cc(C(=O)NCc3cccs3)sc2c2ccccc21	102	94	97	x
91	COc1ccc(N(C(C)C(=O)N(C)C)S(C)(=O)=O)cc1 (centres undefined)	109	95	93	2
92	Cc1nc(C(C#N)c2ccccc2)cs1 (centres undefined)	x	92	94	-23
93	CN(Cc1ccccc1)C(=O)c1noc2c1CCCC2	103	92	81	-19
94	Cc1cc(C)c(NC(=O)c2cc(S(=O)(=O)N3CCN(c4ccccc4F)CC3)ccc2F)c(C)c1	110	108	98	x
95	COc1ccc(OC)c(-c2nc(Nc3ccccc3F)sc2CC(=O)O)c1	102	81	85	x
96	O=C(NCc1ccc2c(c1)CCN2C(=O)c1ccc(F)cc1)c1ccco1	111	117	101	x
97	CCCNC(=O)CCc1c(C)[nH]n(-c2nc(C)c(C)s2)c1=O	102	x	x	-13
98	Cc1cc(C)c2c(-n3cccc3)nn(CC(=O)NCc3cccnc3)c2n1	109	x	x	-15
99	CC(=O)Nc1ccc2c(c1)N(C(C)=O)c1ccccc1CC2	100	99	81	-20
100	CC(C)c1cc(NC2CC2)n2nc(-c3cccnc3)nc2n1	103	x	x	1

Reprinted at random: two compounds from above.
item	SMILES	GIV-Gai inh	Sa growth 42C	Sa growth 42C second temp	HCMV UL50-53 inh
37	Cc1cc(C)n(Cc2ccccc2)n1	x	103	90	-6
94	Cc1cc(C)c(NC(=O)c2cc(S(=O)(=O)N3CCN(c4ccccc4F)CC3)ccc2F)c(C)c1	110	108	98	x

Of the compounds above, these contain an aryl thioether with sulfur outside any ring.
item	SMILES	GIV-Gai inh	Sa growth 42C	Sa growth 42C second temp	HCMV UL50-53 inh
7	COCCCNC(=O)CSc1nnc(-c2ccoc2C)o1	104	x	x	-6
9	CCC(Sc1nc2ncccc2c(=O)n1Cc1ccccc1)C(=O)Nc1ccc(OC)cc1 (centres undefined)	104	106	78	2
13	COC(=O)c1ccccc1NC(=O)c1nc(SCc2ccccc2C)ncc1Cl	101	97	90	-6
20	COC(Cn1c(SCc2ccccc2)nnc1-c1ccccc1)OC	95	107	103	0
27	C=CCNc1nnc(SCC(=O)N2N=CCC2c2ccccc2)s1 (centres undefined)	104	94	78	-6
28	O=C(CSc1nc2ccsc2c(=O)n1Cc1ccccc1F)NCc1ccccc1Cl	103	102	85	x
32	O=C(CSc1cccc[n+]1[O-])NCc1ccc(Cl)cc1	x	101	92	2
40	COc1cc(-c2nnc(SCC(=O)Nc3cccc(C#N)c3)o2)cc(OC)c1OC	104	95	87	17
45	C=CCn1c(C)cc(C(=O)CSc2nnc(-c3cccs3)o2)c1C	x	104	90	-6
52	N#Cc1ccccc1CSc1nnc2c(n1)[nH]c1ccccc12	99	94	83	-28
55	Cc1c(SCC(C)C)cc(N2C(=O)c3ccccc3C2=O)cc1S(=O)(=O)c1ccccc1	x	82	93	-17
56	C=CCn1c(SCC(=O)N2CCOCC2)nc2sc(C)c(C)c2c1=O	99	x	x	-20
61	O=C(CSc1nnc2ccccn12)Nc1ccccc1C(=O)O	x	66	87	-19
73	O=C(CSc1nnc2ccccn12)Nc1ccc(F)cc1	x	115	80	-8
83	COc1ccc2c(Sc3ccccc3)c(C(=O)NCCCN3CCCCC3)[nH]c2c1	101	109	89	-21

Screening results (PubChem)
